High-throughput results as filed in PubChem BioAssay.
NS1 function inh: inhibitors of influenza NS1 protein function; S. cerevisiae slowed by influenza A NS1, growth recovery by OD600; Potency, µM (highest dose often 46.1 µM), inactives show top-dose activity, positive = more growth; actives 0.4% (n = 270,000); AID 2326; also: actives are rising curves; nearly all actives have a fitted effect of over 50% in size
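OD600 was taken as the measure of yeast growth restored by compound in an NS1-expressing S. cerevisiae strain. Cells had been washed out of glucose medium and diluted 1:100 into galactose -URA medium, pH 6.0.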
SARS PLpro yeast: inhibitors of SARS-CoV papain-like protease in yeast; S. cerevisiae expressing SARS-CoV PLpro, growth rescue; control for the full effect not named in the record; actives 0.19% (n = 330,000); AID 485353; Potency, µM (top dose mostly 32.9 µM), without a hit: top-dose activity, positive = growth rescue; also: 0% is about no effect; nearly all actives have a fitted effect of over 55% in size; growth read by luminescence after 48 h
Lassa entry inh: blocks Lassa virus binding to or entry into cells. Lassa virus pseudotype entry inhibition, cell reporter; control for the full effect not named in the record. Potency, µM (titrated, usually from 37.9 µM), for the others: top-dose activity change, negative = inhibition, usual class: inhibitors. actives 1.2% (n = 300,000); active means well fitted inhibition curve with a large enough effect; inconclusive means small, poorly fitted or top-dose-only effect, or effect the other way; inactive means flat fitted curve, though single readings scatter; tested in HEK293 cells; also: % is scaled to controls: 0 for no effect and ±100 for the full control effect; nearly all actives have a fitted effect of over 50% in size; luciferase read-out
Cruzain inh noDet: cruzain (T. cruzi) inhibition without detergent | P25779 | actives 2.3% (n = 200,000) | AID 1476 | purified cruzain, Z-FR-AMC fluorescence, no detergent | Potency, µM, inactives show max response, negative = inhibition, most hits filed as inhibitors; active = well fitted curve in the direction sought with a large enough effect; inconclusive = small, poorly fitted or top-dose-only effect, or another doubt; inactive = no such curve, though single readings can be large; an effect the other way counts as inactive or inconclusive;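 also: plate controls were enzyme without inhibitor for no effect and buffer without enzyme for full effect; nearly all actives have a fitted effect of over 40% in size; top concentration of the series not given in the record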
Target sequence (P25779 123-467 limits assumed): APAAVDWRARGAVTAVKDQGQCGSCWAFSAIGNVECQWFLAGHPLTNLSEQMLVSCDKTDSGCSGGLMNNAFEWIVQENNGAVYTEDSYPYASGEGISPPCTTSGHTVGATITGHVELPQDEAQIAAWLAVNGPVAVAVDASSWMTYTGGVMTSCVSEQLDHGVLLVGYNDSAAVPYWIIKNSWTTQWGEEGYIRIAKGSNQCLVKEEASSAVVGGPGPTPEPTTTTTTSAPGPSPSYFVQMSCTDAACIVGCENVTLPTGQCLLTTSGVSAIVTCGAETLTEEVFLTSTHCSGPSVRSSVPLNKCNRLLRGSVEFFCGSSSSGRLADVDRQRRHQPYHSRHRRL
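Detergent-free condition (0.00005% Triton X-100) in acetate buffer pH 5.5 with DTT. 1.5 nM enzyme and compound were pre-mixed 15 min, then 2 uM Z-FR-AMC substrate added; reaction progress from fluorescence change between first and third reads (60 s).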
Cruzain Triton: blocks cruzain activity in presence of Triton detergent; purified cruzain, Z-FR-AMC fluorescence, 0.01% Triton; actives 0.43% (n = 200,000); Potency, µM, inactives show max response, negative = inhibition, most hits filed as inhibitors; active = well fitted curve in the direction sought with a large enough effect; inconclusive = small, poorly fitted or top-dose-only effect, or another doubt; inactive = no such curve, though single readings can be large; an effect the other way counts as inactive or inconclusive;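 also: plate controls were neutral wells for no effect and buffer without enzyme for full effect; nearly all actives have a fitted effect of over 40% in size; top concentration of the series not given in the record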
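Enzyme 1.5 nM, Z-FR-AMC 2 uM, NaOAc 100 mM pH 5.5, DTT 5 mM, Triton X-100 0.01%; 15 min RT compound preincubation; kinetic ex360/em450, 60 s delta.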
Marburg entry inh: Marburg virus entry inhibition. Marburg virus pseudotyped entry inhibition, cell reporter; control for the full effect not named in the record; about a third of the inactives were read at about 46 µM. Potency, µM (highest dose often 37.8 µM), for the others: at the highest dose activity change, negative = inhibition, actives largely listed as inhibitors. actives 1.8% (n = 300,000). AID 540276; active = well fitted inhibition curve with a large enough effect; inconclusive = small, poorly fitted or top-dose-only effect, or effect the other way; inactive = flat fitted curve, though single readings scatter; tested in HEK293 cells; about a fifth of its hits are not listed in these tables; also: % is scaled to controls: 0 for no effect and ±100 for the full control effect; luciferase read-out
2A StopGo: FMDV 2A StopGo reporter, luciferase signal. actives 1.2% (n = 410,000). Potency, µM (titrated, usually from 57.9 µM), inactives show at the top dose signal change, negative = less light. AID 1159524. human cells with a luciferase reporter of 2A StopGo recoding; control for the full effect not named in the record; active = well fitted falling curve with a large enough effect; inconclusive = small, poorly fitted or top-dose-only effect; inactive = no such curve, though single readings can be large or run the other way; tested in HEK293T cells; also: % is scaled to controls: 0 for no effect and ±100 for the full control effect; nearly all actives have a fitted effect of over 45% in size; luciferase light after 4 h
RE007 growth inh: less growth of the S. pombe RE007 Vpr strain; S. pombe RE007 Vpr strain, BacTiter-Glo ATP luminescence, 24 h; control for the full effect not named in the record; Potency, µM (series often up to 92.2 µM), inactives show at the top dose activity change, negative = less growth; actives 0.21% (n = 360,000); active = well fitted falling curve with a large enough effect; inconclusive = small, poorly fitted or top-dose-only effect; inactive = no such curve, though single readings can be large or run the other way;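 also: % is scaled to controls: 0 for no effect and ±100 for the full control effect; nearly all actives have a fitted effect of over 50% in size; the assay follows cell death caused by Vpr and the record does not say whether a fall means rescue or toxicity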
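Fission yeast RE007 carrying one integrated HIV-1 vpr copy, seeded at OD 0.01 in PMG+AL medium with 23 nL pinned compound. Grown 24 h at 30 degrees; viability read by BacTiter-Glo luminescence after 5 min.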
Numbers without * were called inactive; ? = inconclusive; / = not tested or not shown; [ ] = remark or other dose. Unless noted, calls follow the shape of the dose curve; as a rule, active means well fitted rising curve with a large enough effect; inconclusive means small, poorly fitted or top-dose-only effect; inactive means no such curve, though single readings can be large or run the other way. Potency is read from the fitted curve at half-maximal effect.

SMILES | NS1 function inh | SARS PLpro yeast | Lassa entry inh | Cruzain inh noDet | Cruzain Triton | Marburg entry inh | 2A StopGo | RE007 growth inh
O=C(C1CCN(S(=O)(=O)c2ccccc2)CC1)N1CCCCC1 | 10.3% | 1.5% | -5.5% | / | / | 7.0%[46.1 µM] | 11.0% | 0.3%
COC(=O)C1=C(Nc2ccccc2NC(=O)CCCC(=O)O)CSC1 | 2.6% | -0.3% | ? | / | / | -9.7%[46.1 µM] | 9.3% | 1.6%
CCOC(=O)c1c(C)nc2sc3c(=O)[nH]cnc3c2c1-c1ccc(OC)cc1 | -10.4% | -6.9% | 6.2% | ? | -5.2% | 33.4% | -24.5% | 14.2%
CCOC(=O)c1c(C)[nH]c(C2=NNC(=Nc3ccccc3OC)SC2)c1C | ? | -6.5% | ? | -15.0% | -6.3% | ? | 33.9%[activator] | 7.5%
COc1ccc(NC(=O)NCc2ccc3c(c2)OCO3)cc1OC | 11.8% | -5.9% | 2.8% | / | / | -7.3% | -7.9% | -7.6%
CCOc1ccc(Cc2onc3c2C(=O)CC(C)(C)C3)cc1OCC | / | 0.2% | -34.2% | / | / | -15.3%[46.1 µM] | ? | 7.1%
CCCc1ccc(S(=O)(=O)N/N=C\c2ccc3c(c2)OCO3)cc1 | -70.1% | -5.0% | -24.5%[46.1 µM] | / | / | ? | 56.4%[activator] | 5.9%
Cc1nc(N2CCC(C)CC2)c2c(C)c(C(=O)Nc3ccc(C)c(F)c3)sc2n1 | / | -4.6% | 2.9%[46.1 µM] | / | / | ? | -18.2% | -13.1%
CCCc1cc(=O)[nH]c(SCc2ccc(C#N)cc2)n1 | 2.5% | -0.9% | 0.6% | -9.5% | -3.9% | -7.2% | -18.2% | 19.0%
Cc1cccc(OCC(=O)Nc2ccc(Cl)c(-c3nc4ccccc4[nH]3)c2)c1 | / | / | -13.6%[46.1 µM] | ? | -3.2% | ? | ? | /
CC(C)CCN(Cc1ccco1)C(=O)c1cc2c(s1)-c1ccccc1OC2 | / | / | / | ? | ? | 15.9%[46.1 µM] | -17.4% | /
O=C(O)CC1NCCc2ccccc21 (stereo unspecified) | -0.3% | 1.1% | / | / | / | -3.4% | 7.2% | -14.8%
COCCn1c(SCC(=O)N2CCCc3ccccc32)nnc1-c1ccco1 | -3.2% | -0.2% | -23.8%[14.3 µM] | -1.1% | 6.2% | -17.1% | 14.1% | 5.3%
CCS(=O)(=O)Nc1cc(C(=O)O)ccc1C | 10.0% | 0.3% | 3.9% | / | / | ? | 6.2% | -15.3%
CC(=O)NC(CC(=O)OCC(=O)c1ccc(NC(=O)CC(C)C)cc1)c1ccccc1 (stereo unspecified) | / | -11.4% | 4.8% | / | / | ? | 7.9% | -1.2%
Cn1c(NC(=O)Cc2ccc(F)cc2)cc(=O)n(C)c1=O | -0.4% | 2.3% | / | 0.6% | 1.0% | / | -15.6% | -2.4%
Cc1nn(S(=O)(=O)c2ccc(C(C)C)cc2)c(C)c1S(=O)(=O)N1CCCCCC1 | / | / | -2.2%[46.1 µM] | 6.3% | -1.8% | / | -8.9% | /
CC(C)c1ccc(S(=O)(=O)c2nnn3c2nc(NCCc2ccccc2)c2sccc23)cc1 | / | / | 4.0%[46.1 µM] | 10µM* | 0.2% | / | 8.8% | /
CN(C)/C=C(\C=[N+](C)C)c1[nH]ncc1[N+](=O)[O-] | / | 2.2% | 1.7% | / | / | 3.1%[46.1 µM] | -2.6% | 4.0%
CCCN1CC23C=CC(O2)C(C(=O)O)C3C1=O (stereo unspecified) | 2.5% | -0.9% | / | 2.2% | 4.4% | / | -8.0% | -0.4%
Cc1cccc(/C=N/NC(=O)Cc2ccc(Cl)cc2)c1O | 1.4% | 7.8% | / | / | / | / | 14.8% | 4.1%
Cc1ccc(S(=O)(=O)Nc2ccnc(-c3cccnc3)n2)cc1 | 2.2% | 1.6% | -3.3% | / | / | -1.6%[46.1 µM] | 20.2% | 1.8%
CCCCn1c(CN2CCN(c3ccccc3)CC2)nc2c1c(=O)n(C)c(=O)n2C | -28.2% | -0.9% | / | ? | -4.2% | / | 0.0% | 5.1%
CCn1c(SCC(=O)Nc2ccc3c(c2)c2ccccc2n3CC)nnc1-c1cnccn1 | -63.5% | / | -23.8% | ? | -4.0% | ? | / | -11.0%
Cc1ccc(N(C(=O)C2CCCO2)C2C=CS(=O)(=O)C2)cc1Cl (stereo unspecified) | 2.0% | 10.7% | 3.0% | 4.2% | 5.9% | 10.9% | / | -5.5%
CCOC(=O)c1cc(-c2ccc(OC)cc2)n(CCC(=O)NC2CCC(C)CC2)c1C (stereo unspecified) | / | / | ? | ? | -5.3% | / | -2.5% | /
CC(NC(=O)c1cccc(S(=O)(=O)N2CCN(Cc3ccccc3)CC2)c1)c1ccc(Cl)cc1 (stereo unspecified) | / | 0.2% | 0.891µM* | / | / | ? | -28.8% | 0.1%
CCOc1ccc(C(=O)NCc2ccco2)cc1OCC | 7.9% | 1.6% | 26.4% | / | / | 6.8% | -1.0% | 2.9%
COC(=O)c1cc(NC(=O)Cn2nc(-c3ccccc3)c3c(c2=O)CCCC3)cc(C(=O)OC)c1 | / | / | 5.3%[46.1 µM] | -5.3% | -0.5% | -5.0%[46.1 µM] | ? | /
Cc1ccc2c(C)c(C(=O)N(C)C(C)c3ccon3)oc2c1C (stereo unspecified) | -12.9% | -0.4% | -26.6% | / | / | ? | 4.0% | -4.3%
CCOc1ccccc1/C=N/Nc1ccnc(=O)[nH]1 | 16.0% | -0.6% | ? | / | / | ? | 21.9% | 1.5%
CC(C(=O)O)n1cc(C#N)c(=O)[nH]c1=O (stereo unspecified) | / | / | 2.1%[46.1 µM] | / | / | 4.6%[46.1 µM] | 8.0% | 0.8%
CCOC(=O)c1c(NC(=O)Nc2cccc(Cl)c2)sc(C)c1C | -45.5% | -8.5% | -11.9% | 25.1µM* | -0.4% | -21.1% | 7.0% | -10.4%
COCCN1C(=O)N(c2cccc(C)c2)C(=O)C1CC(=O)Nc1ccc(F)cc1 (stereo unspecified) | 2.6% | -3.9% | 4.4% | 2.8% | 3.4% | 2.0%[46.1 µM] | 2.5% | 11.9%
Nc1c(C(=O)NCc2ccco2)sc2nc3c(cc12)C(=O)CCC3 | 9.7% | -1.0% | 0.1% | 6.9% | ? | ? | 19.7% | 3.3%
CCOC(=O)C1=C(N)OC(C)=C(C(=O)OCCOC)C12C(=O)Nc1ccccc12 (stereo unspecified) | -3.9% | -0.5% | 1.7% | 1.9% | 4.0% | 6.2% | -8.0% | -1.7%
COc1ccc(NC(=O)Cn2c(=O)n(CCc3ccccc3)c(=O)c3ccccc32)cc1 | / | / | 3.8%[46.1 µM] | 4.7% | -2.8% | -1.8%[46.1 µM] | 13.7% | /
O=C(/C=C/c1ccccc1[N+](=O)[O-])N1CCc2ccccc2C1 | -19.9% | -4.5% | 2.2%[46.1 µM] | / | / | -4.2%[46.1 µM] | 16.6% | 0.0%
CCOC(=O)C1CCN(CCC(=O)Nc2ccc(Cl)cc2)CC1 | -6.2% | 0.8% | 10.2% | -11.2% | 5.7% | 2.1% | ? | 0.0%
CC(C)c1ccc(NC(=O)c2cc3sc(Cl)cc3n2C)cc1 | / | / | / | 8.0% | 0.6% | -1.4%[46.1 µM] | 3.4% | /
CCOc1ccc(-c2c(C(=O)N/N=C/C3CC=CCC3)nnn2-c2nonc2N)cc1 (stereo unspecified) | 28.0% | 3.9% | / | / | / | / | -17.1% | -8.2%
CC(C)=C1SC(N2CCOCC2)=NC1=O | -0.7% | 16.4% | 26.8% | 7.4% | 2.0% | -1.8% | 0.0% | -1.1%
CN(c1ccccc1)S(=O)(=O)c1ccc(C(=O)N2CCCC(C(F)(F)F)C2)cc1 (stereo unspecified) | 1.7% | 2.4% | 7.1% | / | / | -24.0% | 0.0% | -4.5%
Cc1ccc(S(=O)(=O)c2nnn3c2nc(NC2CCCCC2)c2sccc23)cc1C | / | / | ? | -4.4% | -7.2% | / | -10.0% | /
O=C(Nc1ccc2c(c1)OCO2)c1ccc[n+]([O-])c1 | -0.5% | 5.2% | 5.5% | 2.9% | 3.1% | ? | 4.3% | 4.7%[3.69 µM]
CCOc1ccc(N(C)S(=O)(=O)c2csc(C(N)=O)c2)cc1 | -2.5% | 0.8% | 23.7%[46.1 µM] | / | / | 7.3%[46.1 µM] | -13.5% | 8.8%
COc1ccc(NC(C)=O)cc1NC(=O)C1CCCN1C(=O)c1cccs1 (stereo unspecified) | / | -2.9% | 3.6% | / | / | 16.9% | -19.6% | -17.5%
COc1ccc(CCN2C(=O)C(C)=C(C)C2=O)cc1OC | -6.1% | -1.3% | / | / | / | / | 19.7% | 4.8%
COc1ccc(NC(=O)Cn2c(=O)n(-c3ccccc3)c(=O)c3c4c(sc32)CCCC4)c(OC)c1 | / | / | -2.0%[46.1 µM] | 12.0% | 1.1% | 4.1%[46.1 µM] | 1.7% | /
O=C(CCCC1=NS(=O)(=O)c2ccccc2N1)N1CCN(c2ccc(Cl)cc2)CC1 | -5.3% | 5.1% | 17.0% | 10.8% | 1.8% | 9.9% | -15.5% | -1.4%
Cc1[nH]nc2c1C(c1ccsc1)C(C#N)=C(N)O2 (stereo unspecified) | -12.8% | -6.2% | -2.9% | -1.0% | 0.8% | -3.7% | ? | -21.5%
CC(=O)N1CCN(c2csc3ccc(Br)cc3c2=O)CC1 | / | / | 21.2%[46.1 µM] | 10.1% | -7.4% | / | 18.1% | /
COCCNC(=O)c1c(N)n(-c2cccc(C)c2)c2nc3ccccc3nc12 | -51.7% | -2.2% | -26.0% | ? | ? | ? | 0.0% | 17.3%

Single values from the list:
CC(=O)N1CCN(c2csc3ccc(Br)cc3c2=O)CC1 in Lassa entry inh: 21.2%[46.1 µM]
COCCn1c(SCC(=O)N2CCCc3ccccc32)nnc1-c1ccco1 in Lassa entry inh: -23.8%[14.3 µM]
